# Screening results as filed in PubChem BioAssay.
# HSD17B inhib: blocks hydroxysteroid 17-beta dehydrogenase activity; Q99714; recombinant HSD17B10, NADH fluorescence kinetic; many of its hits are not listed in these tables; Potency, µM (series often up to 57.1 µM), inactives show at the highest dose activity change, negative = inhibition, actives largely listed as inhibitors; 7.6% of 75,000 active; AID 893; active = well fitted inhibition curve with a large enough effect; inconclusive = small, poorly fitted or top-dose-only effect; inactive = no such curve, though single readings can be large or run the other way;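 note: the protocol describes HADH2 (HSD17B10) and not the HSD17B4 of the title; nearly all actives have a fitted effect of over 70% in size; most hits overshoot -100% by far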
#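 His-tagged E. coli-expressed HADH2 at 20 nM in 100 mM Tris-HCl pH 9.0 with 0.01 % Tween-20, preincubated 15 min with compound at room temperature. Reaction with 1 mM NAD+ and 90 uM beta-hydroxybutyryl coenzyme A; NADH fluorescence (360/450 nm) read kinetically over 4 min, last minus first point.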
# Starred values were filed as active, the others as inactive; u = inconclusive; & = joins results of further samples; [ ] = remark or other dose. % is set by controls: 0 for no effect and ±100 for the full control effect; potency is the fitted concentration of half-maximal effect. Not all compounds are listed; rates above refer to the full screens.
SMILES,HSD17B inhib
CCC(=NC1CCN(Cc2ccccc2)CC1)c1c(O)[nH]c(=O)[nH]c1=O,-5%
N#CC(Cl)Cl,-1%
Brc1ccc(Oc2cc(Br)c(Br)cc2Br)c(Br)c1,1%&0%
O=C1c2ccccc2C(=O)c2ccccc21,-1%
CCCCN1C(=O)NC(=O)C2(Cc3ccccc3N3CCOCC32)C1=O (stereo unspecified),8%
O=c1[nH]c(=O)n(Cc2ccccc2)c(O)c1C=Nc1ccc(CN2CCOCC2)cc1,u
CN1CC[C@@]23CCCC[C@@H]2[C@@H]1Cc1ccc(O)cc13,-1%
CC1=C(C(=O)Nc2ccccc2)SCCO1,6%
CC1CCCCN1CC(=O)c1ccc2cc[nH]c2c1 (stereo unspecified),32µM*
CN(C)c1ccccc1,-6%
Cc1nc2ccccc2c(=O)n1-c1cccc(O)c1,-6%
COC(=O)c1ccc(N2C(=O)CC(N3CCC(n4c(=O)[nH]c5ccccc54)CC3)C2=O)cc1 (stereo unspecified),-4%
CC12CC1(C)C(=O)N(c1cc(Cl)cc(Cl)c1)C2=O (stereo unspecified),-3%
Cc1ccc(Cn2ccc(NC(=O)c3cc(-c4ccco4)on3)n2)cc1,u
NC1CCCCC1N=Cc1c(O)n(Cc2ccc(F)cc2)c(=O)[nH]c1=O (stereo unspecified),3%
Cc1nc(N)sc1CCN,7%
CN1CC[C@@H]2CN3CCc4cccc(c43)[C@H]2C1,32µM*
Cc1cc(Br)ccc1N1C(=O)CC(=O)NC1=O,u
c1ccc2cc3c(cc2c1)-c1cccc2cccc-3c12,40µM*
CC(=O)c1c(O)c(C)c(O)c(Cc2c(O)c3c(c(C(=O)/C=C\c4ccccc4)c2O)OC(C)(C)C=C3)c1O,32µM*
CC(C)Br,6%
C[C@@H](Cc1ccccc1)NCCC(c1ccccc1)c1ccccc1,-4%[25.6 µM]
CC(C)(C)P(=O)(c1ccncc1)N1CCCC1 (stereo unspecified),2%
CC(=O)OC1CC2C(C)(C)C(O)C=C[C@@]2(C)C2CC[C@]3(C)C(=CC(=O)OC3c3ccoc3)[C@]12C (stereo partly specified),-2%
O=C(c1cc(-c2ccncc2)nc2ccccc12)N1CCC2(CC1)OCCO2,-5%

# Reformatted with tabs: part of the list above
smiles	HSD17B inhib
CC1=C(C(=O)Nc2ccccc2)SCCO1	6%
CC1CCCCN1CC(=O)c1ccc2cc[nH]c2c1 (stereo unspecified)	32µM*
CN(C)c1ccccc1	-6%
Cc1nc2ccccc2c(=O)n1-c1cccc(O)c1	-6%
COC(=O)c1ccc(N2C(=O)CC(N3CCC(n4c(=O)[nH]c5ccccc54)CC3)C2=O)cc1 (stereo unspecified)	-4%
CC12CC1(C)C(=O)N(c1cc(Cl)cc(Cl)c1)C2=O (stereo unspecified)	-3%
Cc1ccc(Cn2ccc(NC(=O)c3cc(-c4ccco4)on3)n2)cc1	u
NC1CCCCC1N=Cc1c(O)n(Cc2ccc(F)cc2)c(=O)[nH]c1=O (stereo unspecified)	3%
Cc1nc(N)sc1CCN	7%
CN1CC[C@@H]2CN3CCc4cccc(c43)[C@H]2C1	32µM*
Cc1cc(Br)ccc1N1C(=O)CC(=O)NC1=O	u
c1ccc2cc3c(cc2c1)-c1cccc2cccc-3c12	40µM*
CC(=O)c1c(O)c(C)c(O)c(Cc2c(O)c3c(c(C(=O)/C=C\c4ccccc4)c2O)OC(C)(C)C=C3)c1O	32µM*
CC(C)Br	6%
C[C@@H](Cc1ccccc1)NCCC(c1ccccc1)c1ccccc1	-4%[25.6 µM]
CC(C)(C)P(=O)(c1ccncc1)N1CCCC1 (stereo unspecified)	2%
CC(=O)OC1CC2C(C)(C)C(O)C=C[C@@]2(C)C2CC[C@]3(C)C(=CC(=O)OC3c3ccoc3)[C@]12C (stereo partly specified)	-2%
O=C(c1cc(-c2ccncc2)nc2ccccc12)N1CCC2(CC1)OCCO2	-5%

# Other records
SMILES,HSD17B inhib
CCc1ccc(CCN2CCCCC2)nc1,-1%[11.4 µM]
CCOC(=O)C(O)(c1ccc(N)c(OC)c1)C(F)(F)F (stereo unspecified),10%
COc1ccc(-n2c(O)c(C(C)=NCc3ccco3)c(=O)[nH]c2=O)cc1,-4%
O=C(c1cc(-c2cccnc2)nc2ccccc12)N1CCC2(CC1)OCCO2,4%
CCCOC(=O)[C@@H]1[C@@H](C(=O)O)[C@H]2CC[C@@H]1O2,4%[11.4 µM]
CCCCCCC[n+]1ccc(-c2cc[n+](CCCCCCC)cc2)cc1,10%
O=C(CN1CC(c2ccccc2)CC1=O)NCc1ccc(F)cc1 (stereo unspecified),6%
C=CCN=C=S,-5%
Oc1ccc(Cl)c(Cl)c1,-1%
O=C(CN1CCOCC1)c1ccc2cc[nH]c2c1,25µM*
Cc1cc(NC(=O)CCC(=O)N2CCC3(CC2)OCCO3)no1,5%
CN(C)C1=C(C#N)C(c2ccccc2)=NP(N(C)C)(N(C)C)=N1,0%
CC(=O)Nc1ccc(OC(=O)N2CCCCC2)cc1,5%
CC(C)CCON=O,-1%
CCCC(C)C1(CC)C(=O)NC(=O)NC1=O (stereo unspecified),8%
ClC=CCl,2%
O/N=C1\CCC2CN(C3CCCCC3)CC2C1 (stereo unspecified),6%
CCSc1nnc([C@@H](N)Cc2c[nH]c3ccccc23)o1,-11%
O=C(Cl)c1ccccc1F,-10%
O=C(Cc1ccccc1)OC(COCc1ccccc1)CN1CCOCC1 (stereo unspecified),-13%
Cc1ccc(-n2c(O)c(C=NC3CCCCC3N)c(=O)[nH]c2=O)cc1C (stereo unspecified),25µM*
O=c1c(O)c(-c2ccc(O)c(O)c2)oc2c(O)c(O)cc(O)c12,-21%
CCC(C)C(=O)OC1C[C@@]2(C)C(c3ccoc3)OC(=O)CC23OC2(C)OC34C(OC(=O)C(C)C)[C@]3(O)C(OC(=O)C5(C)OC5C)[C@]5(C)CC3(O)[C@](C)(C5CC(=O)OC)C14O2 (stereo partly specified),-8%
Nc1cccc(Cl)c1,4%
CCCNC(=O)N1C2CCC1CC(O)(c1cccnc1)C2 (stereo unspecified),0%

# (continued)
SMILES,HSD17B inhib
CN(C)c1ccc(N(C)C)cc1,-6%
CCS(=O)CCSP(=O)(OC)OC (stereo unspecified),-7%
O=C(NCc1ccc(C(=O)N2CCC3(CC2)OCCO3)cc1)c1ccc2c(c1)OCO2,4%
O=C(CN1CC(c2ccccc2)CC1=O)Nc1cccc(F)c1 (stereo unspecified),13%
COC(=O)/C=C\C(=O)N[C@@H]1CC[C@@]2(O)[C@H]3Cc4ccc(O)c5c4[C@@]2(CCN3CC2CC2)[C@@H]1O5,-5%
O=C(C1CC(c2ccc(Cl)c(Cl)c2)=NO1)N1CCC2(CC1)OCCO2 (stereo unspecified),2%
Oc1ccc2c3c1O[C@H]1c4c(c5ccccc5n4Cc4ccccc4)C[C@]4(O)[C@H](C2)N(CC2CC2)CC[C@@]314,19%
O=C(Oc1ccccc1)N1CCC2(CC1)CN(Cc1ccncc1)C2,-4%
CCC(=O)OC1(c2cccc(C)c2)CC(C)N(C)CC1C (stereo unspecified),-3%
COC(=O)c1c(C)[nH]c(C(=O)C(Cc2ccccc2)N(C)C)c1C (stereo unspecified),-3%
S=C=Nc1cccc(C2(N3CCCCC3)CCCCC2)c1,-8%
O=c1c2ccccc2nc(CSc2ncnc3nc[nH]c23)n1-c1ccccc1,u
CC(C(N)=O)N1CC(c2ccccc2)CC1=O (stereo unspecified),7%
COC(=O)[C@@H]1C[C@@]2(O)[C@@H](O)[C@@H](O)[C@@H](O)C[C@H]2N1Cc1cccnc1,-1%
O=C(c1cc2ccccn2n1)N1CCC2(CC1)OCCO2,-2%
Cc1cccc(NC2=NCCCS2)c1C,18%
C[C@H](CCC(=O)O)[C@H]1CC[C@@H]2[C@H]3CC[C@H]4C[C@@H](O)CC[C@@]4(C)[C@H]3CC[C@]21C,-27%[25.6 µM]
CON(C)C(=O)Nc1ccc(Cl)cc1,5%
c1ccc(C2CC2)c(OCC2=NCCN2)c1,3%&-4%
COc1ccccc1CN1CCCC2(CCN(C(=O)Oc3ccccc3)CC2)C1,-7%
O=C(CN1CCCC1=O)N1CCOCC1,3%
C=COC(C)=O,3%
S=C=S,-2%
CC(Cl)Cl,4%
CC(=NCc1ccc2c(c1)OCO2)c1c(O)n(C)c(=O)n(C)c1=O,2%

# Other entries follow:
SMILES,HSD17B inhib
CN1CCN(c2nccc3c2ncn3C)CC1,8%
Cc1cnn(C2CCN(C)CC2)c1N,19%
Nc1cc(Cl)cc(Cl)c1,1%
CN1CCN(c2ccc([N+](=O)[O-])c3[nH]o[n+](=O)c23)CC1,1%[11.4 µM]
COC(=O)[C@H]1C[C@@H]1[C@H](NP(=O)(c1ccccc1)c1ccccc1)c1ccccc1,14%
ClCCCCl,0%
C[C@@]12C=CC(=O)C=C1CCC1C2CC[C@]2(C)C(=O)CCC12 (stereo partly specified),-4%
COc1ccc(C[C@@H](N)c2ccc(OC)cc2)cc1,7%[11.4 µM]
NC(=O)c1cc(N2CC2)c([N+](=O)[O-])cc1[N+](=O)[O-],-4%
O=C(c1cc(-c2ccccc2)nc2ccccc12)N1CCC2(CC1)OCCO2,-4%
C=C(C)[C@H]1CN[C@H](C(=O)O)[C@@H]1CC(=O)O,8%
CCNc1nc(Cl)nc(NCC)n1,-6%
CCCCOC(=O)COc1cc(C)cc2oc(=O)c3c(c12)CCC3,20µM*
C=CC#N,2%
O=C(N[C@H]1CN2CCC1CC2)c1ccc(Cl)cc1,1%
COc1ccc(CC2C(=O)N(C)C(=O)N(C)C2=O)c(OC)c1,3%
O=C(O)/C=C\CO,-9%
O=[As](O)(O)c1ccc(N=Nc2ccc([As](=O)(O)O)cc2)cc1,6%[11.4 µM]
O=C(c1cc2ccccc2oc1=O)N1CCC2(CC1)OCCO2,-5%
CC1(C)CC(n2[nH]c(=O)c3c2NC(=O)CSC3c2ccc(F)cc2)CCO1 (stereo unspecified),3%
C(#CCN1CCOCC1)COC/C=C/c1ccccc1,-1%
Cn1c(=O)cc(OCC(=O)N2CCN(Cc3ccc4c(c3)OCO4)CC2)c2ccccc21,2%
CO[C@@H](C)[C@](O)(C(=O)OCC1=CCN2CC[C@@H](O)[C@H]12)C(C)C,3%[25.6 µM]
Cc1c2cnn(CC(=O)N3CCC4(CC3)OCCO4)c(=O)c2c(C)n1Cc1ccccc1F,-10%
CN1C(=O)N(C)C(=O)C2(Cc3ccccc3N3CCOCC32)C1=O (stereo unspecified),9%

# New compounds follow:
SMILES,HSD17B inhib
NN=C(N)N,4%&-6%&-5%&6%
C=C(C)C(=O)OCC1CO1 (stereo unspecified),-1%
N[C@@H](Cn1oc(=O)[nH]c1=O)C(=O)O,16%
C[C@@H](Cc1cccc(C(F)(F)F)c1)NCCCc1ccccc1,-27%
COC(=O)c1ccccc1N,32µM*
[O]=[Cd],-4%
CN1C(=O)C(Cc2cccc3ccccc23)C(=O)N(C)C1=O,-13%
Nc1ccccc1-c1ccccc1,32µM*
O=P1(Nc2cccnc2)COc2ccccc2OC1,11%
COc1ccc(Cl)cc1NC1=NCC(C)S1 (stereo unspecified),-13%
CNP(=S)(NC)OCCOc1ccc(OC)cc1,7%
CN1CCN(c2ncnc3ccc(Br)cc23)CC1,3%
CCCSc1nc(O)c(CC)c(=O)n1C(C)CC (stereo unspecified),-20%
CC(C)=CCOc1c2occc2cc2ccc(=O)oc12,-2%
C[C@]1(C(=O)O)CCC[C@]2(C)c3cc(O)ccc3CC[C@@H]12,-6%
CSCC[C@@H](N)P(C)(=O)O,4%[11.4 µM]
Cn1c(O)c(C=NCCN2CCN(C(=O)c3ccccc3)CC2)c(=O)n(C)c1=O,0%
CC(CCC(=O)O)C1CCC2C3CC[C@@H]4CCCC[C@@]4(C)C3CC[C@@]12C (stereo partly specified),u
CCCCCCCCn1sccc1=O,u
CC(C)(C)[C@]1(O)C[C@@H]2OC(=O)C[C@@]23C(=O)O[C@@H]2OC(=O)[C@H](O)[C@]213,0%
c1cc2c(cc1[C@H]1OC[C@@H]3[C@H]1CO[C@H]3c1ccc3c(c1)OCO3)OCO2,8%
C[C@@]12CC[C@H]3[C@@H](CC[C@H]4C[C@@H](O)CC[C@]43C)[C@H]1CC[C@@H]2C(=O)C[C@H](O)C(F)(F)F,15%[11.4 µM]
CNCCc1c(C)n[nH]c1C,5%
O=C(Cc1ccc(Cl)c(Cl)c1)N1CCCC[C@H]1CN1CCCC1,24%&10%
Cc1n[nH]c(C)c1CCN,8%

# Next entries
SMILES,HSD17B inhib
COC(=O)CC1(CC(=O)OC)C(=O)NC(=O)NC1=O,-3%
Fc1ccc(NC2=NCCS2)cc1Cl,3%
CC1CC[C@]2(NC1)OC1CC3C4CC=C5CC(O)CC[C@@]5(C)C4CC[C@]3(C)C1C2C (stereo partly specified),-2%
COC(=O)c1c(C)ccc2c(O)c3c(cc12)C(=O)c1c2c(cc(O)c1C3=O)[C@@]1(C)O[C@@](C)(O2)[C@@H](O)[C@H](N(C)C)[C@H]1O,3.2µM*
COc1ccc(S(=O)(=O)Cc2ccc(C(=O)N3CCC4(CC3)OCCO4)o2)cc1,9%
CC(C)(c1ccccc1)c1ccc(O)cc1,-6%
C[C@@]12CC[C@H](O[C@@H]3O[C@H](CO)[C@@H](O)[C@H](O)[C@@H]3O)C[C@@H]1CC[C@H]1[C@H]2CC[C@@]2(C)[C@@H](C3=CCOC3=O)CC[C@]12O,1%[11.4 µM]
COc1c(C(C)(C)C)cc([N+](=O)[O-])c(C)c1[N+](=O)[O-],9%
O/N=C1/C(=C\c2ccccc2)N2CCC1CC2,0%
Cc1sc2ncn(CC(=O)NCC(=O)N3CCC4(CC3)OCCO4)c(=O)c2c1C,6%
O=P(CN1CCN(c2ccccc2)CC1)(N1CCCCC1)N1CCCCC1,4%
FC(F)(F)c1nc2ccc(SSc3ccc4nc(C(F)(F)F)[nH]c4c3)cc2[nH]1,3.2µM*
Nc1c(Br)cc([N+](=O)[O-])cc1[N+](=O)[O-],-2%
